Screening results: PubChem, several laboratories
YopH inh: YopH tyrosine phosphatase inhibitors, primary screen, biochemical, fluorescence Ex485/Em525 | YopH tyrosine phosphatase [Yersinia enterocolitica] | inhibition, %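 (about 10 µM by stock and volumes)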 | AID 898, 2007 | 140,000 tested, 0.16% active;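 active = inhibition of 50% or more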;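 note: controls were vehicle for no effect and minimum signal wells for full effect; inactives centre near -20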
Mtb H37Rv: M. tuberculosis H37Rv growth inhibitors, H37Rv strain (AID 1626); 220,000 tested, 0.95% active; inhibition, % at 10 µM; hits with a dose series show IC50 in µM; M. tuberculosis H37Rv growth inhibition; higher % means a stronger effect;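 active = confirmed in a dose series; inconclusive = inhibition above 80% but not taken into the dose series; inactive = below 80% or under 30% at every dose of the series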;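 note: bacteria incubated seven days before Alamar blue readout; 0% = bacteria only wells and 100% = bacteria with antibiotic wells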
Mtb betalactam: beta-lactam sensitization of Mtb H37Rv, H37Rv. M. tuberculosis H37Rv growth with meropenem, percent inhibition; hits of this screen are not shown here. inhibition, % at 25 µM. 330,000 tested, 0.27% active;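 active = about 74% or more and at least 40 points above the plate without the antibiotic, then above 30% in a dose series; inconclusive = first-round hits that could not be retested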;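 note: growth measured after seven days incubation then overnight dye step; 0% = bacteria only wells and 100% = bacteria with antibiotic; twin plates without the antibiotic show which effects depend on it; some results filed as inactive read as strong as hits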
Arbovirus anti: antivirals against arbovirus infection, primary screen, cell-based, full library, 10K replicate subset; 200,000 tested, 0.37% active; inhibition, % at 10 µM; arbovirus infection cell-based antiviral screen;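 active = inhibition from about 30%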;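 note: bluetongue infection of BSR cells; cell survival read as ATP light after 72 h; 0% = infected wells without compound and 100% = uninfected wells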
RecA intein inh: Mtb RecA intein splicing inhibitors, primary screen, biochemical, fluorescence, HTS | 290,000 tested, 0.75% active | cell-free RecA intein splicing | inhibition, %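 (about 9 µM by stock and volumes)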 | Protein RecA (Mycobacterium tuberculosis (strain ATCC 25618 / H37Rv)), P9WHJ3; in the data active = inhibition above about 30%; inconclusive = no clear call, values can overlap the other calls;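 note: 0% = vehicle wells and 100% = reference inhibitor control wells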
Target sequence (P9WHJ3 whole entry, looked up): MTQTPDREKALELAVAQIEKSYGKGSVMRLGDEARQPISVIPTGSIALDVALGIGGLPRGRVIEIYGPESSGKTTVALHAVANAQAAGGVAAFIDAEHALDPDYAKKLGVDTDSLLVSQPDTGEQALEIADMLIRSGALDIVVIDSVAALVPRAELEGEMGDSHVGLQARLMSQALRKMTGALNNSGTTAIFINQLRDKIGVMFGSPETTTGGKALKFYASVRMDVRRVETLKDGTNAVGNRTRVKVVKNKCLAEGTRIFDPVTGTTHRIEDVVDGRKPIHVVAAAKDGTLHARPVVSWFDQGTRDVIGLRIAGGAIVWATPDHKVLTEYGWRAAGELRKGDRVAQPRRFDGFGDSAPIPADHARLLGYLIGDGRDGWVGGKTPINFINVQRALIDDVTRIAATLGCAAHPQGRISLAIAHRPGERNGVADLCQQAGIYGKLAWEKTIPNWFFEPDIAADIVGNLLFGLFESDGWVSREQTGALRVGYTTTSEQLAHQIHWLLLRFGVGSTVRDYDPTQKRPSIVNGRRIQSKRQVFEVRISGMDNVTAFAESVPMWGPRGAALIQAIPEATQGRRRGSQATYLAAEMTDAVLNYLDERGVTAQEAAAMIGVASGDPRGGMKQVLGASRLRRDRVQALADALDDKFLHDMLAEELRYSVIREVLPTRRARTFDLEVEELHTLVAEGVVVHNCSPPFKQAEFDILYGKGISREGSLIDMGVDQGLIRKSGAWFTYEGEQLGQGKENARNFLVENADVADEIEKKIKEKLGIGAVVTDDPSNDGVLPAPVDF
Starred values were filed as active, the others as inactive; ? = inconclusive; . = no result given. The list is partial; count on the stated rates, not on these rows.

SMILES	YopH inh	Mtb H37Rv	Mtb betalactam	Arbovirus anti	RecA intein inh
CCOC(=O)C1=C(N)OC2=C(C(=O)CC(C)(C)C2)C1c1ccccc1OC (stereo not given)	.	1%	13	0	-1.9
CC12CC[C@H]3[C@@H](CCC4(O)C[C@H](O)CCC34/C=N/NC(=O)Cc3ccccc3)C1(O)CCC2C1=CC(=O)OC1 (stereo not given in full)	.	3%	-6	.	0.7
CNc1ccc(Br)cc(C(=O)/C=C/c2cccc(OC)c2)c1=O	-13	0%	12	13	-0.8
COC(=O)Nc1ccc(C)cc1NC(=O)OC	0	-13%	6	-1	-3.0
O=C1C=C(c2ccc(Cl)cc2)C(=O)N1Nc1ccccc1	-14	1%	85	-2	-1.4
CC(C)(C)c1ccc(OCC(=O)NCc2ccco2)c(Br)c1	5	-3%	1	1	17
COc1ccc(CN=C2NN=C(c3ccc(Cl)cc3)CS2)cc1	.	5%	1	-7	-3.1
Cc1cccc(N2CCN(C(=O)COc3ccc4ccc(=O)oc4c3)CC2)c1C	.	.	68	.	1.1
Cc1ccc(N2CC(C(=O)Nc3nnc(SCC(=O)NCC4CCCO4)s3)CC2=O)cc1C (stereo not given)	.	.	-13	.	0.2
O=C(NC(Cc1ccccc1)C(=O)O)/C(=C/c1ccc([N+](=O)[O-])cc1)NC(=O)c1ccco1 (stereo not given)	.	.	-3	.	-1.1
O=C(Nc1ccc(C(=O)NCC2CCN(Cc3ccccc3F)CC2)cc1)C1=CSCCO1	.	.	4	.	-3.0
CC1Sc2ccc(S(=O)(=O)N3CCN(c4cccc(Cl)c4)CC3)cc2NC1=O (stereo not given)	.	.	0	.	6.6
CCOC(=O)C1CCN(C(=O)c2ccc3c(c2)NC(=O)/C(=C/c2ccccc2)S3)CC1	.	.	99	.	-29
COc1ccc(C2c3c(-c4cc(Cl)c(C)cc4O)n[nH]c3C(=O)N2Cc2cccnc2)cc1OC (stereo not given)	8	-6%	4	-22	2.4
c1ccn2cc(CSc3nnc4ccccn34)nc2c1	-33	-18%	-8	0	.
Nc1nonc1-n1nnc(C(=O)N/N=C/c2cccc(Cl)c2)c1-c1cccs1	.	.	23	.	0.7
c1ccc(N(c2ccccc2)c2nc(-n3ccnc3)nc(-n3ccnc3)n2)cc1	-24	-4%	60	-2	1.3
OCC1CCCN(C(=S)Nc2ccc(Nc3ccccc3)cc2)C1 (stereo not given)	.	-2%	-3	-14	1.5
COCCCNCCOc1ccc(C)cc1[N+](=O)[O-]	-10	-1%	?	-2	-1.2
Cc1ccc(C)c(NC(=O)Cn2nnc(C(=O)Nc3c(C)cccc3C)c2N)c1	-28	.	-8	-4	1.0

Reprinted from the part before: 5 compounds, then new ones.
SMILES	YopH inh	Mtb H37Rv	Mtb betalactam	Arbovirus anti	RecA intein inh
Nc1nonc1-n1nnc(C(=O)N/N=C/c2cccc(Cl)c2)c1-c1cccs1	.	.	23	.	0.7
c1ccc(N(c2ccccc2)c2nc(-n3ccnc3)nc(-n3ccnc3)n2)cc1	-24	-4%	60	-2	1.3
OCC1CCCN(C(=S)Nc2ccc(Nc3ccccc3)cc2)C1 (stereo not given)	.	-2%	-3	-14	1.5
COCCCNCCOc1ccc(C)cc1[N+](=O)[O-]	-10	-1%	?	-2	-1.2
Cc1ccc(C)c(NC(=O)Cn2nnc(C(=O)Nc3c(C)cccc3C)c2N)c1	-28	.	-8	-4	1.0
O=C(N/N=C/c1ccc(OC(F)F)cc1)c1ccc(Br)cc1	-34	2%	2	-6	0.6
Cc1ccc2c(c1)nnn2C1CCN(CC(=O)NCCc2ccccc2)CC1	-21	-2%	10	-8	0.0
COc1ccccc1NC(=O)C(C)N1C(=O)c2ccccc2C1=O (stereo not given)	.	.	-9	.	-4.0
COc1ccccc1CNC(=O)c1ccc(C)s1	.	-1%	5	-5	-1.1
COc1ccc(NC(=O)C2C3CCC(O3)C2C(=O)O)c(C)c1 (stereo not given)	.	.	4	.	2.0
O=C(COC(=O)c1ccccc1Cc1ccccc1)Nc1ccc(SC(F)F)cc1	-5	20%	2	-22	5.2
O=C(NC1CCCC1)C1CCN(C(=O)c2ccc(Cl)cc2Cl)CC1	.	.	2	.	0.9
CCOC(=O)C(C)Oc1cccc2c(=O)n(CC(=O)NCc3ccc4c(c3)OCO4)ccc12 (stereo not given)	-46	80%	-8	-17	0.0
CC1(C)NC(=O)N(CC(O)CN2CCOCC2)C1=O (stereo not given)	-1	-12%	-10	-1	4.0
COC(=O)COc1ccc2oc(=O)cc(C)c2c1	7	-9%	-3	5	0.4
O=C1N(CN2C(=O)C3(OCCO3)c3ccccc32)c2ccccc2C12OCCO2	-34	1%	3	12	-0.2
O=[N+]([O-])c1ccc(CN2CCN(c3ccc(F)cc3)CC2)o1	.	.	100	.	-3.3
O=C(/C=C/c1ccccc1[N+](=O)[O-])c1ccccc1Br	.	?	99	-23	-0.2
CCOc1ccc(-n2cc(C(=O)NC(C)C)c3cc(OC)c(OC)cc3c2=O)cc1	-36	-4%	2	-8	-1.1
Cc1c(C(=O)N2CCCCC2)sc(NC(=O)C2CC2)c1C#N	-31	-2%	4	1	1.0
Cn1c(SCC(=O)N2CCOCC2)nnc1-c1cnccn1	-34	-10%	-10	3	-2.0
O=C(COC(=O)C1CCC1)Nc1ncc(Cl)cc1Cl	.	.	-2	.	5.8
Fc1ccc(C(c2nnnn2CCc2ccccc2)N2CCCc3ccccc32)cc1 (stereo not given)	-16	11%	-2	-20	9.0
CNS(=O)(=O)c1cc(NC(=O)c2cccc3cccnc23)ccc1C	.	.	7	.	-4.8
CCn1c(COc2ccccc2C)nnc1SCC(=O)NC1CCCC1	-24	-2%	7	5	-2.6

Compound profiles, as listed above:
O=C1N(CN2C(=O)C3(OCCO3)c3ccccc32)c2ccccc2C12OCCO2 is listed with YopH inh = -34; Mtb H37Rv = 1%; Mtb betalactam = 3; Arbovirus anti = 12; RecA intein inh = -0.2
O=C(N/N=C/c1ccc(OC(F)F)cc1)c1ccc(Br)cc1 is listed with YopH inh = -34; Mtb H37Rv = 2%; Mtb betalactam = 2; Arbovirus anti = -6; RecA intein inh = 0.6

The list goes on.
SMILES	YopH inh	Mtb H37Rv	Mtb betalactam	Arbovirus anti	RecA intein inh
COc1ccccc1N1C(=O)CC(Nc2ccc(N3CCOCC3)cc2)C1=O (stereo not given)	-17	-7%	45	-22	-2.6
Clc1ccc(-c2noc(CN3CCOCC3)n2)cc1	.	-5%	0	.	1.1
O=C(NN1CCOCC1)c1sc2cccc(F)c2c1Cl	.	5%	-1	4	2.6
COc1ccc2c(-c3ccccc3)cc(SCC(=O)NC3CCS(=O)(=O)C3)nc2c1 (stereo not given)	-27	-2%	-5	-4	4.0
O=S1(=O)CCO[C@H]2Cc3ccccc3[C@H]2N1Cc1ccc(F)cc1	.	.	75	.	1.0
COc1ccc(C2N(S(=O)(=O)c3ccc(C)cc3)CCN2S(=O)(=O)c2ccc(C)cc2)cc1	-14	-2%	7	2	5.6
Cc1ccc(-n2c(N)c(C(=O)N3CCOCC3)sc2=S)c(C)c1	-24	-2%	7	-4	-1.3
O=C(c1cccc(F)c1)N1CCC(N2CCOCC2)CC1	-11	-8%	-11	-1	-0.3
CCc1ccc(C(=O)/C=C/Nc2ccc(S(=O)(=O)Nc3cnc4ccccc4n3)cc2)cc1	.	8%	49	.	-46
COc1ccc(N)c2c1OCCC2=O	-4	4%	-2	1	-5.7
O=C1CN(S(=O)(=O)c2ccccc2C(F)(F)F)CCN1	.	-10%	-2	3	0.3
CCOC(=O)c1ccc(NC(=O)CSc2nnc(CNC(=O)c3c(F)cccc3Cl)o2)cc1	-5	-5%	29	6	0.3
COc1ccccc1N1CCN(S(=O)(=O)c2ccc(Br)s2)CC1	2	-5%	15	6	7.4
COc1ccc(Cl)cc1NC(=O)CCN1CCN(Cc2ccccc2)CC1	.	.	6	.	0.6
O=C(CNS(=O)(=O)c1ccccc1)Nc1ccccc1Br	.	.	-3	.	-0.3
CC(=O)Nc1ccc(NC(=O)[C@H](C)NC(=O)c2ccco2)cc1	.	.	-3	.	4.2
Cc1cc(C)c(C)c(/C=C(/C#N)C(N)=S)c1C	-26	3%	-12	-6	1.0
N#CCCn1c(SCC(=O)NCC2CCCO2)nc2ccccc21 (stereo not given)	-41	5%	-2	-5	0.6
Cc1ccc(-n2cc3ccc([N+](=O)[O-])cc3n2)cc1	-11	1%	1	0	0.7
COc1c(Cl)cc(Cl)cc1C(=O)Nc1ccc(CN2CCOCC2)cc1	.	.	-4	.	-1.9
COc1ccc(NS(=O)(=O)Cc2ccccc2)cc1OC	-5	-4%	2	10	3.1
Cc1cc(=O)oc(C)c1C(=O)N1CCCCC1	-7	-3%	6	17	-0.1
C/C(=C\c1ccccc1)CN1CCN(Cc2ccc(C)o2)C(CCO)C1 (stereo not given)	.	4%	-7	-13	2.8
COc1cccc(C(=O)NC2CC3CCC(C2)N3Cc2ccccc2)c1 (stereo not given)	.	.	-4	.	0.6
COc1cc(CN2CCN(Cc3ccc(C)cc3)C(CCO)C2)ccc1O (stereo not given)	.	5%	0	9	-4.7
CCCCCc1nnc(NC(=O)C(=O)OCC)s1	-7	-1%	-2	3	1.6
COc1cc(OC)c([N+](=O)[O-])cc1/C=N/NC(=O)c1ccncc1	.	?	99	-10	-1.9
O=C(NCc1ccccn1)c1nc(-c2cccs2)no1	.	-3%	6	-3	-0.5
Cc1nc2ccccn2c1C(=O)c1ccccc1	-42	2%	-11	2	-2.2
CC(C)(C)OC(=O)N/N=C\c1ccc([N+](=O)[O-])s1	.	58%	100	-2	-0.6
Cc1ccc(C(=O)O/N=C/c2c(C(F)(F)F)nn(C)c2Sc2ccc(Cl)cc2)cc1	-11	2%	1	-12	4.3
Cc1c(Cl)cccc1NC(=O)C1CCCCC1	.	-4%	-7	-4	2.8
COC(=O)Cc1c(C)c2ccc(OC3CCCCC3=O)cc2oc1=O (stereo not given)	.	.	-2	.	-3.5
Cc1cccn2c(=O)nc(SCC(=O)NCc3ccccc3Cl)nc12	.	.	-9	.	1.2
C=CCn1c(O)c(C(CC)=Nc2ccc(N(C)C)cc2)c(=O)[nH]c1=O	.	0%	18	.	-2.5
O=C(COC(=O)c1cccc2ccccc12)NCCCc1ccccc1	-3	-2%	8	4	6.0
COc1ccc(C(F)(F)F)cc1NC(=O)c1nc2nc(C)cc(C(F)F)n2n1	1	4%	3	4	22
CCOC(=O)c1ccc(-c2n[nH]c(=O)c3ccccc23)cc1	-1	1%	-2	2	1.9
COc1ccc(/C=N/NC(=O)C2COc3ccccc3O2)cc1OC (stereo not given)	.	1%	-2	-1	-0.5
Cc1c(C(=O)N2CCN(c3ccccn3)CC2)oc2ccccc12	-24	5%	1	0	2.7
COc1ccc(C(C(=O)NCc2ccc(F)cc2)N(C(=O)c2csnn2)C2CC2)cc1 (stereo not given)	.	.	0	.	-1.5
NC(=O)c1ccsc1NC(=O)COC(=O)C1CC2CCCC(C1)C2=O (stereo not given)	.	-4%	-3	.	0.6
COc1ccc(CCNCc2ccc(F)cc2)cc1OC	-5	3%	-8	-3	1.7
COc1ccc(CCNC(=O)c2nn(C)c3c2CS(=O)(=O)c2ccccc2-3)cc1OC	.	.	-2	.	1.4
COC(=O)CSc1ccc2nnc(-c3ccc(F)cc3)n2n1	-56	2%	.	6	1.8
COc1ccc(CCN(C)C(=O)/C=C/c2c(Cl)nc3ccccn23)cc1OC	.	-1%	1	-2	-0.6
Cc1ccc(C2=CC(c3ccc(C)cc3)n3ncnc3N2)cc1 (stereo not given)	.	2%	46	.	-91
Cc1ccc(F)cc1NC(=O)CSc1nc(Nc2ccccc2)nc(N2CCOCC2)n1	.	.	-6	.	0.1
CCc1cc2c3c(c(=O)oc2cc1OC)CCCC3	-5	-3%	20	11	2.8
NC(=O)C1CCN(C(=O)CN2CCN(c3cccc(C(F)(F)F)c3)CC2)CC1	-13	-5%	-2	6	-2.5
C/C(=N\NC(=O)c1ccc(O)cc1)c1ccc(N2CCOCC2)cc1	.	-2%	9	-6	0.4
Cc1sc(N/N=C/C=C/c2ccccc2)nc1-c1ccccc1	-38	-1%	27	5	-0.4
CCOC(=O)c1c(C)[nH]c(C(=O)COC(=O)c2oc3ccccc3c2C)c1C	-14	-5%	2	-3	-0.3
CC(C)NCCCCOc1cccc(Br)c1	-29	-7%	3	1	8.9
N#CCSc1nc(N)c(C#N)c(C2CCCCC2)c1C#N	-24	7%	2	34*	8.6
